gsp antagonist: antagonizes gsp, the McCune-Albright syndrome mutation | gsp-mutant cells, cAMP HTRF, 30 min; control for the full effect not named in the record | Potency, µM (series often up to 76.9 µM), for the others: at the highest dose activity change, negative = inhibition, most hits filed as inhibitors | actives 0.4% (n = 340,000) | AID 624288; active = falling curve of any shape with a large fitted effect; inconclusive = falling curve, mostly with a smaller effect; inactive = flat or rising curve; cell line not stated here;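 further: intracellular cAMP measured with PDE inhibitor Ro 20-1724 present during compound exposure; potency means the concentration at half of the fitted maximal effect; on the % scale 0 is the no-effect control and ±100 the full control effect; nearly all actives have a fitted effect of over 65% in size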
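HTRF cAMP measurement after 30 min RT detection following 30 min, 37C compound treatment alongside […] (added as 300 uM solution) in G418-selected cells seeded at 2000/well and grown 16–24 h.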
Menin-MLL FL inh: menin-MLL binding inhibition, fluorescein peptide. Fluorescence polarization, fluorescein-MLL peptide displacement from menin. FP activity change, % at 61.4 µM. 290,000 tested, under 10 active. AID 1766; inconclusive = falling polarisation curve, or a change in total fluorescence; inactive = total fluorescence flat and polarisation flat or rising; no compound was filed as active; the % refers to the polarisation; negative = inhibition;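 further: % of control where 0% means no effect; inhibitors lower the polarisation; unlabelled MLL peptide was the positive control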
ClpP mod: qHTS Assay for Activators of ClpP. ATP-dependent Clp protease proteolytic subunit (Bacillus subtilis (strain 168)), P80244. purified B. subtilis ClpP, FRET peptide cleavage, 20 min. Potency, µM (top dose mostly 57.5 µM), without a hit: at the highest dose activity change, negative = active. actives 1.9% (n = 340,000). AID 651965, 2013; active = well fitted falling curve with a large enough effect; inconclusive = small, poorly fitted or top-dose-only effect; inactive = no such curve, though single readings can be large or run the other way; further: potency means the concentration at half of the fitted maximal effect; the source files actives as falling curves though it sought activators and does not explain the sign; nearly all actives have a fitted effect of over 65% in size; many hits overshoot -100%
Target sequence (P80244 whole entry, looked up): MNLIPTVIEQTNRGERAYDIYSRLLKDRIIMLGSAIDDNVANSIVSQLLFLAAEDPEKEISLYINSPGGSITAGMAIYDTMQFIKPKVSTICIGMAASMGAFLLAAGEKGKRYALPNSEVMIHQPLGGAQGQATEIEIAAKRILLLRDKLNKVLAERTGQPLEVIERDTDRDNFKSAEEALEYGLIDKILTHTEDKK
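Buffer: 100 mM Tris/HCl pH8, 100 mM KCl, 0.05% low protease BSA, 2.5% glycerol, 0.01% Tween-20. ClpP 10 microg/mL final; 20 min RT; delta FRET normalized to ADEP and DMSO controls.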
gsp ag: activates gsp, the McCune-Albright syndrome mutation. AID 624287. actives 0.13% (n = 340,000). Potency, µM (doses to about 76.9 µM), without a hit: top-dose activation (cAMP increase), most hits filed as activators. gsp mutant cells, cAMP HTRF, 30 min; control for the full effect not named in the record; active = well fitted activation curve with a large enough effect; inconclusive = small, poorly fitted or top-dose-only effect, or another doubt; inactive = no such curve, though single readings can be large or run the other way; cell line not stated here;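 further: phosphodiesterase inhibitor Ro 20-1724 added with compounds to block cAMP breakdown; potency means the concentration at half of the fitted maximal effect; nearly all actives have a fitted effect of over 60% in size; about a fifth of the inactives were tested at one dose only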
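Cells in DMEM/10% FBS with G418 were pretreated with compounds in DMSO plus […] (300 uM stock) for 30 min at 37C. cAMP was measured by HTRF (cAMP-d2 plus anti-cAMP antibody-K) after 30 min at room temperature.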
D2 agonist: activates the human D2 dopamine receptor; DiscoveRx PathHunter D2 beta-arrestin, luminescence, 90 min; 100% = 57 uM dopamine signal; actives 0.084% (n = 360,000); activation, % (concentration not given with the values); P14416; in the data active = activation above about 40%; inconclusive = about 15% to 40%; inactive = below about 15%; further: compound concentration not given in the record; the text of the record calls up to 30% inactive
Target sequence (P14416 whole entry, looked up): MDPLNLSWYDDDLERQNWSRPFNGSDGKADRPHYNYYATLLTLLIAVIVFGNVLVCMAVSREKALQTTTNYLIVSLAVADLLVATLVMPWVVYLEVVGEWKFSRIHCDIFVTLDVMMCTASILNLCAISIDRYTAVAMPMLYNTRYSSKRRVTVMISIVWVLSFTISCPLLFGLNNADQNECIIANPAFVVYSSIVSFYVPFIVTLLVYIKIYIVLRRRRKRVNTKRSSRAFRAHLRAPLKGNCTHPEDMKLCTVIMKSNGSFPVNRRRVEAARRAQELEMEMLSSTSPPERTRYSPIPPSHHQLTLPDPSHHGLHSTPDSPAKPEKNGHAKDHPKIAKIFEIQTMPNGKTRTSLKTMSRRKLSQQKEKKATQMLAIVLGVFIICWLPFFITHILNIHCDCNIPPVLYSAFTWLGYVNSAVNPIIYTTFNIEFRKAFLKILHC
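DiscoveRx PathHunter D2 beta-arrestin cells (2,100/well) attached overnight, then compound-stimulated 90 min at 37 C in HBSS/10 mM HEPES/0.1% Tween-20 buffer; beta-galactosidase complementation read by luminescence after 1 h at ambient temperature. Dopamine 57 uM final (EC100) as control.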
Sfp PPTase inh: inhibitors of Bacillus subtilis Sfp phosphopantetheinyl transferase; Q9F4F7; Biochemical Sfp PPTase activity, qHTS; actives 3.5% (n = 310,000); Potency, µM, inactives show max response, negative = inhibition, most hits filed as inhibitors; active means well fitted inhibition curve with a large enough effect; inconclusive means small, poorly fitted or top-dose-only effect, or another doubt; inactive means no such curve, though single readings can be large or run the other way;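 further: the enzyme is Sfp with the accession as filed and its product quenches rhodamine fluorescence; potency means the concentration at half of the fitted maximal effect; 0% = enzyme reaction without inhibitor and -100% = no enzyme wells; top concentration of the series not given in the record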
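With Hepes-Na pH 7.6 buffer containing 10 mM MgCl2, Sfp (15 nM) modified BHQ-2-YbbR (12.5 uM) using rhodamine-CoA (5 uM). Two reads 30 minutes apart at 525/598 nm yielded each well's rate.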
PINK1 expr mod: changes PINK1 expression; PINK1 immunofluorescence, high-content cytometry, 24 h; Potency, µM (series often up to 76.6 µM), for inactives: at the highest dose activation (PINK1 increase), actives largely listed as activators; actives 0.2% (n = 410,000); AID 624263; active = well fitted activation curve with a large enough effect; inconclusive = small, poorly fitted or top-dose-only effect; inactive = flat fitted curve, though single readings scatter; cell line not stated here;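 further: potency means the concentration at half of the fitted maximal effect; % of control where 0% means no effect; nearly all actives have a fitted effect of over 65% in size; a mitochondrial uncoupler was the plate control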
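PINK1 protein level read as immunofluorescence by microplate cytometer in a fixed, stained stable cell line after 24 h exposure to five compound concentrations, with CCCP as control.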
An asterisk follows results filed as active; ? = inconclusive; nt = not tested or not shown; & = joins results of further samples; [ ] = remark or other dose. The list is partial; rates above refer to the full screens.

SMILES	gsp antagonist	Menin-MLL FL inh	ClpP mod	gsp ag	D2 agonist	Sfp PPTase inh	PINK1 expr mod
CC1=CC(=O)OC2CC3OC4C[C@@H](C)C5OC6CC7O[C@]8(C)C/C=C\C9OC%10CC%11OC(CC(C)CO)CC(O)[C@]%11(C)OC%10CC9OC8C[C@]7(C)O[C@]6(C)CCC5OC4C[C@]3(C)OC12 (some centres not stated)	-2.9%	-1.3	2.3%	13.2%	-1.9	11.3%	-0.7%
Cc1cc(C)cc(-n2c(C)cc(/C=C3\C(=O)NC(=O)N(C)C3=O)c2C)c1	16.4%	3.7	0.2%	22.9%	0.5	-1.2%	2.8%
C[C@H](CO)N1C[C@H](C)[C@@H](CN(C)C(=O)Oc2ccc3ccccc3c2)OCc2cn(nn2)CCCC1=O	nt	nt	-0.1%	9.3%	5.9	nt	-2.2%
CN1CCN(c2c[nH]c(=O)[nH]c2=O)CC1	6.2%	2.9	0.3%	-2.4%	-1.3	2.0%	-0.5%
CCOC(=O)C(O)(c1ccc(N(C)C(=O)c2ccc(Cl)c(Cl)c2)cc1)C(F)(F)F (configuration not stated)	-3.9%	-0.5	-13.9%	10.5%	-2.0	-0.1%	2.0%
CN1CCN(c2nc([N+](=O)[O-])nn2C)CC1	8.0%	0.7	-0.8%	3.8%	2.1	6.7%	1.7%
COC(=O)COc1ccc(/C=C2\C(=O)NC(=S)N(c3ccc(C)cc3)C2=O)cc1OC	4.8%	-11.9	-3.3%	-13.6%	-2.5	39.8µM*	-2.2%
N#C/C(=C(/O)c1ccc(S(=O)(=O)N(CCCl)CCCl)cc1)c1nc2ccccc2[nH]1	13.7%	-0.4	-9.1%	10.5%	-1.2	27.3%	1.9%
CCCCn1c(O)c(C(CC)=NC(C)c2ccccc2)c(=O)[nH]c1=O (configuration not stated)	4.7%	4.1	-0.4%	-41.0%[inhibitor]	0.8	6.1%	13.0%[38.3 µM]
COc1ccc(NP(=O)(Oc2ccc(Cl)cc2)Oc2ccc(Cl)cc2)cc1OC	-37.1%	2.2	1.6%	22.7%	-9.9	-0.4%	?
O=[N+]([O-])[N-][n+]1cnn(Cc2ccccc2)c1	-10.3%	-1.8	-0.8%	6.8%	-5.8	14.0%	1.4%
COc1ccc(NC(=O)Nc2ccc3c(c2)C(=O)N([C@H](C)CO)C[C@H](C)[C@@H](CN(C)Cc2ccc(Cl)c(Cl)c2)OCCCC[C@@H](C)O3)cc1	nt	nt	?	?	13.8	nt	4.7%
COC(=O)CNC(=O)c1cn(CCC#N)nc1-c1ccc(F)cc1	-38.0%	2.5	nt	9.4%[15.4 µM]	2.6	7.2%	2.7%
O=C(Oc1ccccc1)N1CCC2(CC1)CN(C(c1ccccc1)c1ccccc1)C2	nt	-1.8	nt	nt	nt	-17.0%	-0.7%
COc1ccc(-n2c(C)nc3cc(C(=O)N4CCC5(CC4)OCCO5)ccc32)cc1	-4.4%[15.4 µM]	1.6	-2.0%	-1.9%	0.5	-3.4%	9.0%
C=CCn1c(O)c(C(CC)=NCc2cc(OC)cc(OC)c2)c(=O)[nH]c1=O	12.8%	3.0	0.6%	2.1%	-4.6	-18.0%	-1.3%
COc1ccc(OC)c(-n2c(O)c(C=Nc3c(C)n(C)n(-c4ccccc4)c3=O)c(=O)[nH]c2=S)c1	-16.8%	14.1	nt	5.9%[15.4 µM]	1.3	44.7µM*	-0.1%
COc1ccc(OC)c(-n2c(O)c(C=NCc3ccc4c(c3)OCO4)c(=O)[nH]c2=O)c1	5.6%	4.4	-3.2%	22.4%	1.0	4.8%	2.2%
c1cc2c(cc1CN1CCNCC1)OCO2	-1.8%	3.6	-1.8%	?	-3.4	11.9%	0.1%
Cc1ccc(CSc2ncccc2C(=O)O)cc1	-22.7%	1.4	-5.3%&-2.9%	8.2%	2.3	14.3%	0.1%
O=C1NC(=O)C2(Cc3ccccc3N3CCCC32)C(=O)N1Cc1ccccc1 (configuration not stated)	-3.4%	7.4	-18.9%	20.3%	-1.0	56.2µM*	-0.7%
CCOC(=O)C1(c2ccccc2)CCN(CC(=O)Nc2ccc(C)cc2)CC1	-7.2%	4.7	0.3%	-10.8%	-1.0	6.4%	0.6%
NCCCP(=O)(O)CCc1ccccc1	7.2%	1.5	-1.3%	-41.1%	0.3	12.3%	nt
CCCCCC1C(=O)O[C@H](C)[C@@H](NC(=O)c2cccc(NC=O)c2O)C(=O)OC(C)C1OC(=O)CC(C)C (some centres not stated)	nt	-2.1	nt	nt	nt	17.1%	0.9%
c1ccc(CNCCc2ccc3c(c2)OCO3)nc1	5.2%	-0.3	2.0%	-0.9%	-1.7	-3.8%	nt
CN1CCN(Cc2ccc(Br)s2)CC1	2.5%	1.3	0.3%	14.4%	3.1	?	nt
CCC(=NCCc1ccccc1)c1c(O)n(C)c(=O)n(C)c1=O	-16.4%	-1.7	0.5%	2.6%	-2.4	8.7%	4.3%
N#C/C=C/C#N	4.9%	nt	1.2%	nt	1.8	nt	-0.7%
CC1CN1P(=S)(c1ccccc1)N1CC1C (configuration not stated)	1.6%	nt	0.7%	4.4%	-3.3	nt	0.8%
CCOc1cc2c(cc1OCC)-n1cccc1C(c1ccc(OC)c(OC)c1)NC2 (configuration not stated)	5.9%	-1.5	-0.5%	-115.8%	-0.4	-0.8%	1.0%
CC(C)(C)C(=O)O[C@H]1CC[C@@]2(C)C(=CC(=O)C3C2CC[C@]2(C)C(=O)CCC32)C1 (some centres not stated)	4.0%	nt	nt	?	-1.1	nt	3.7%
Cc1ccc(CN2CCN(C)CC2)c(C)c1	14.1%	2.3	2.3%	-23.9%	-2.4	13.4%	nt
CCCCN1C(=O)/C(=C/c2ccc(N(C)C)cc2)C(=O)N(Cc2ccco2)C1=O	10.2%	?	4.8%	-13.4%	-0.8	-17.6%	-4.3%
Cc1cc(C)nc(/N=C(\N)c2c(O)[nH]c(=O)[nH]c2=O)n1	5.4%	0.9	0.0%	19.5%	1.2	16.9%	nt
CCCCCCn1c(=O)c(C(=O)Nc2ncccc2O)c(O)c2ccccc21	-5.1%	0.2	0.2%	-23.5%	2.9	31.0%[activator]	4.2%
Cc1ccc2c(c1)C1CN(C)CCC1N2C(=O)Nc1ccc(Cl)cc1 (configuration not stated)	8.5%	2.6	0.7%	-38.3%[inhibitor]	-1.1	-3.9%	-1.1%[38.3 µM]
C[C@]12CCC(=O)C=C1CC[C@@H]1[C@@H]2CC[C@@]2(C)[C@H]1CC[C@]2(C)O	-18.6%	3.8&-6.7	0.5%	nt	5.5	11.1%&23.3%	0.1%
COc1ccccc1OCCCn1cc(C(=O)C2CC2)c2ccccc21	44.7µM*	8.8	1.1%	3.6%[15.4 µM]	-4.6	-3.9%	0.0%
CCC1(O)CCC2C3CCC4=CC(=O)CCC4C3CCC21CC (configuration not stated)	1.7%	nt	-1.4%	0.8%[15.4 µM]	0.0	nt	1.9%
CCCCCn1c(=O)c(C(=O)Nc2cccc(C)n2)c(O)c2ccccc21	4.1%	1.3	nt	-9.9%	4.5	2.6%	1.6%
CC(C)c1ccc(NC(=O)N2C[C@H]3C[C@@H](C2)c2cccc(=O)n2C3)cc1	3.2%	3.1	-3.7%	nt	-3.6	11.3%	-0.4%
O=C(CN1CCOCC1)NCC(=O)Nc1ccc(Br)cc1C(=O)c1ccccc1	-3.9%	-0.1	1.6%	-2.7%	-2.3	9.4%	0.0%[38.3 µM]
CCOc1ccc(-n2c(O)c(C=Nc3ccc(N(CC)CC)cc3)c(=O)[nH]c2=O)cc1	0.8%	?	0.9%	-23.7%	2.3	?	nt
COc1ccc(CNCCc2ccc3c(c2)OCO3)c(OC)c1OC	6.4%	-8.3	-3.2%	?	-1.7	-17.5%	-0.8%
COC(=O)C1=C(c2ccc(F)cc2OCc2ccccc2)C[C@@H]2CC[C@H]1N2C(=O)NCCOc1ccccc1Cl	-8.4%	nt	-10.1%	-6.7%	-0.6	nt	-0.7%
O=S(=O)(c1ccc(Cl)cc1)N1CCCCC1c1cccnc1 (configuration not stated)	0.4%	0.8	nt	-3.8%[15.4 µM]	-7.2	24.6%	3.2%
CCCc1c(C)c2cc(C)ccc2[nH]c1=O	-5.8%	3.4	?	24.6%	0.2	4.5%	-1.2%
CC[C@H]1C2C[C@H]3[C@@H]4N(C)c5ccccc5C45C[C@H](C2[C@H]5O)N3[C@@H]1O (some centres not stated)	0.5%	nt	-6.1%	nt	-2.0	nt	2.7%
Clc1ccc2c(c1)C(c1ccccc1Cl)=NCc1nnc(Br)n1-2	5.9%	2.0	1.2%	1.5%	3.2	-1.1%	-0.7%
CC(=O)NC(Cc1ccc(N(CCCl)CCCl)cc1)C(=O)NC(C(=O)O)C(C)C (configuration not stated)	4.1%	-1.3	nt	13.4%[15.4 µM]	0.3	8.0%	0.3%
N#Cc1ccc(NC(=O)CN2C(=O)NC3(CCCC3)C2=O)cc1Cl	5.2%	-0.2	nt	-2.7%[15.4 µM]	-2.5	-1.0%	1.9%
CC(C)CC1C(C#N)=C(N)Oc2c1c(=O)oc1ccccc21 (configuration not stated)	-8.4%	1.5	4.5%	12.6%	-3.0	15.3%	3.9%
CN1CCN(Cc2c(F)cccc2Cl)CC1	6.4%	-4.5	1.0%	8.3%	-2.3	?	2.2%
Cc1cccnc1-n1c(C)nc2ccccc2c1=O	-10.3%	0.2	-1.2%	1.6%	0.3	0.1%	-2.3%
CCC1(C)OC(c2ccccc2)=C/C(=C/C=C2C(=O)NC(=O)NC2=O)O1 (configuration not stated)	-10.7%	?	1.1%	28.7%	0.4	-15.3%	4.6%
CCC(=O)Nc1cc(C(=O)N2CCC3(CC2)OCCO3)ccc1S(=O)(=O)c1ccc(C)cc1	3.2%	0.7	-4.1%	14.9%	2.8	1.1%	-2.2%
Cc1cc(/C=C2\C(=O)NC(=O)N(c3ccc(F)cc3)C2=O)c(C)n1-c1cccc(C(=O)O)c1	6.2%	8.2	nt	13.1%	6.3	-15.8%	-0.5%
CN1C(=O)C(=Cc2sc(=O)n(-c3ccccc3)c2N(C)C)C(=O)N(C)C1=O	-13.3%	?	1.1%	21.4%[15.4 µM]	-5.5	1.8%	10.0%
N#Cc1ccc(NC(=O)CN2CCCC2)cc1Cl	nt	0.9	nt	-41.6%[15.4 µM]	0.4	13.0%	1.3%

Bioassay records as filed in PubChem BioAssay.
